HIV TAR-Tat: TAR RNA-Tat peptide displacers, HIV-1, primary screen, biochemical, FRET, FAM/TAMRA-labeled Tat; HIV-1 TAR RNA, Tat peptide displacement FRET; stronger effect = higher value; z-score (test concentration not listed); 100,000 tested, 0.6% active; AID 1259389, 2018;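 also: score is relative to mean and SD of negative controls; some compounds called inactive have numbers as strong as hits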
CDC25B CDK2 inh: primary biochemical HTRF screen for blockers of M-phase inducer phosphatase 2 binding to CDK2/cyclin A; P30305+P24941; z-score (concentration not given with the values); HTRF CDC25B-CDK2/CyclinA binding, anti-His/anti-Flag; stronger effect = higher value; AID 1259370, 2018; 94,000 tested, 0.72% active;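 also: score is relative to mean and SD of negative controls; strong numbers were not always called active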
* = called active by the depositor; nt = no result given; & = joins results of further samples.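 The calls were made as follows: active = z-score from 3 up in half or more of its runs; inactive = the rest.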

SMILES | HIV TAR-Tat | CDC25B CDK2 inh
COc1ccc2c(C)nc(Nc3nc4ccccc4c(=O)[nH]3)nc2c1 | 0.26 | 6.5&-0.44
CCCc1c(C(=O)Nc2nn(C)c3cccc(OC)c23)cnn1-c1ccccc1 | nt | -0.82
CCCSCCCNC(=O)c1csc2c1CCCCC2 | 1.6 | -1.5
CN1CCc2c(sc3c2C(=O)NC(c2ccc(O)c(O)c2)N3)C1 (centres undefined) | 13* | -0.12
O=C(NCCc1ccsc1)C(=O)Nc1ccc2nc3n(c(=O)c2c1)CCCCC3 | 1.1 | -1.5
CCOC(=O)C1C(c2ccc(C#N)cc2)C(C(=O)OCC)C(O)(C(F)(F)F)NC1(O)C(F)(F)F (centres undefined) | nt | 0.29
Cc1cc2n(n1)C(c1cccc(O)c1O)Nc1ccccc1-2 (centres undefined) | 1.4 | 0.77
COc1ccccc1/C=C/c1nn2c(C(F)(F)F)nnc2s1 | -0.74 | -0.52
CCOc1ccc(-n2nnc(-c3nsc(NC(=O)c4ccco4)n3)c2C)cc1 | 0.02 | -0.33
O=C1CC(c2ccc(F)cc2)Cc2c1cnn2-c1nc2ccccc2s1 (centres undefined) | -0.41 | -2.2
O=C1C2C(c3ccc(F)cc3)OC3(C(=O)c4ccccc4C3=O)C2C(=O)N1Cc1ccc(Cl)cc1 (centres undefined) | 1.9 | -1.7
O=C1C2CCCN2C(c2cccc(Cl)c2)N1c1ccc(Cl)cc1 (centres undefined) | 0.82 | -1.5
O=C(Nc1ccccc1)C1Sc2nnc(-c3ccccc3)n2NC12CCCCC2 (centres undefined) | 0.91 | -0.21
CN1C(=O)c2ccc(NC(=O)c3sc4ccccc4c3Cl)cc2C1=O | nt | -0.91
CCCc1c(OCCCCc2nnn(CCCC(=O)O)n2)ccc2c(=O)ccoc12 | nt | -2
CCN1CCN(c2nc3c(S(=O)(=O)c4ccc(C)cc4)nnn3c3ccccc23)CC1 | 0.16 | nt
O=C(Nc1ccc(F)cc1)c1c[nH]n2c(=O)cc(C3CCNCC3)nc12 | 1.8 | 0.71
CCC(C)N(CCNS(=O)(=O)c1csc(C(N)=O)c1)Cc1cccs1 (centres undefined) | 0.14 | nt
CCOC(=O)C(O)(c1ccc(N)cc1)C(F)(F)F (centres undefined) | nt | -0.8
O=S(=O)(c1ccccc1)N1CCCN(c2nc3cc(Cl)ccc3n3cccc23)CC1 | 5.9 | -1.7
COc1ccccc1N1C(=O)N(c2ccc(F)cc2)C2CS(=O)(=O)CC21 (centres undefined) | -0.8 | -1.4
Cc1nc(C)c(-c2n[nH]c(=S)n2-c2ccccc2C(F)(F)F)s1 | nt | -0.69
O=C(O)c1cc(-c2ccccc2Br)nc2n[nH]c(-c3ccc(F)cc3)c12 | 0.47 | nt
CS(=O)(=NC(=O)c1cnn2c(C(F)(F)F)cc(C(F)(F)F)nc12)c1ccc(Cl)cc1 (centres undefined) | nt | -1.1
CCC(C)Nc1ncnc2c1cnn2-c1cccc(Cl)c1 (centres undefined) | 0.97 | nt
COc1ccc(Br)c2c1-c1nc(NC(C)=O)sc1C2 | nt | -0.34
S=c1nc2[nH]c3ccccc3c2n[nH]1 | nt | 0.92
COc1cc(OC)c(NC2=NS(=O)(=O)C(c3ccccc3)=C2C)cc1Cl | -1.1 | -1.1
CCOC(=O)C1CCN(C(=O)C2CCC(CNc3c(N4CCCCC4)c(=O)c3=O)CC2)CC1 (centres undefined) | 0.8 | -2.5
CCC1CN(C(=O)Nc2ccccc2)c2cc(Cl)ccc2O1 (centres undefined) | 0.92 | nt
CNc1ncnc2c1c(-c1ccccc1)cn2-c1ccc(F)cc1 | 0.2 | -0.24
CN(C)C(CNC(=O)c1cc(-c2ccc(Br)cc2)on1)c1cccs1 (centres undefined) | -0.46 | -1.7
O=C(Nc1cccc(Cl)c1)C1CCCN1S(=O)(=O)c1cccc2cccnc12 (centres undefined) | nt | -1.6
COc1ccc(OCc2nnc(-c3ccccc3)o2)cc1 | 0.18 | -0.33
O=S(=O)(NC1CCCCC1Nc1ccc(F)cc1)c1ccc(Cl)cc1 (centres undefined) | 3.5 | -0.95
CCOc1ccc(S(=O)(=O)[C@H]2CS(=O)(=O)C[C@@H]2N2CCC(C(=O)OC)CC2)cc1 | 0.35 | 0.27
Cc1oc2ncnc(N3CCCCC3)c2c1C(=O)N1CCOCC1 | -0.98 | nt
CC1CCCC(NC(=O)Cn2ncc3ccc(Cl)cc32)C1C (centres undefined) | -1.1 | -1.3
CCCN1CCN(c2ncc3c(n2)CCN(Cc2ccc(OC(C)C)cc2)C3)CC1 | -0.07 | nt
CCCc1cc(=O)oc2c(C)c(OCC(=O)OC(C)(C)C)ccc12 | nt | -0.26

The list goes on, overlapping the part above by 4 compounds.
SMILES | HIV TAR-Tat | CDC25B CDK2 inh
Cc1oc2ncnc(N3CCCCC3)c2c1C(=O)N1CCOCC1 | -0.98 | nt
CC1CCCC(NC(=O)Cn2ncc3ccc(Cl)cc32)C1C (centres undefined) | -1.1 | -1.3
CCCN1CCN(c2ncc3c(n2)CCN(Cc2ccc(OC(C)C)cc2)C3)CC1 | -0.07 | nt
CCCc1cc(=O)oc2c(C)c(OCC(=O)OC(C)(C)C)ccc12 | nt | -0.26
CCOc1ccc(C2C3=C(CC(C)(C)CC3=O)OC3=C2C(=O)CC(C)(C)C3)cc1OC | nt | -0.42
CCOc1ccc(C2C(C#N)=C(N)OC3=C2C(=O)CC(c2ccccc2)C3)cc1 (centres undefined) | nt | -1.7
Cc1cccc(N(Cc2cc(=O)n3ccccc3n2)C2=NC3CS(=O)(=O)CC3S2)c1 (centres undefined) | 2.1 | -1.7
CCOCCCNC(=O)C1CCN(c2ncnc3sc(CC)cc23)CC1 | 0.54 | nt
CCCN1CCN(CCCNC(=O)C2=Cc3sc4c(c3CS2)CCCC4)CC1 | -0.47 | nt
COc1ccc(-c2noc(=O)[nH]2)c(OC)c1 | 0.71 | 0.24
CCOc1ccc(-c2cccc(NS(=O)(=O)c3ccc(F)cc3F)c2)nn1 | 0.89 | nt
CCCSc1nnc2c(=O)[nH]c(=O)[nH]c2n1 | 0.97 | -2
COc1ccc(Cl)cc1-c1noc(COc2ccccc2)n1 | -2.2 | -6.7
CC1=C(C(=O)Nc2ccccc2)C(c2cccs2)C(C#N)=C(SCC(=O)Nc2ccccc2)N1 (centres undefined) | 0.73 | -0.05
Cc1cc(Cl)ccc1Oc1ncccc1N | nt | 0.74
CC(C(=O)O)n1c2ccccc2c2cn[nH]c(=O)c21 (centres undefined) | 0.39 | 2.1
COc1ccc(OC)c(CN2CCN(Cc3c[nH]c4ccccc34)CC2)c1 | 3 | 0.86
CC(C)CCNC(=O)c1cnn2c3c(cnc12)CCCCCC3 | 0.36 | nt
CCC(C#N)(c1ccccc1)c1ccc([N+](=O)[O-])cc1 (centres undefined) | nt | 0.85
O=C(CCCSc1nc(-c2ccco2)cc(C(F)(F)F)n1)NC1CCCC1 | 1.8 | -1.6
Fc1cccc(-c2nnn3c2nc(NCC2CCCO2)c2cc(Cl)ccc23)c1 (centres undefined) | 0.57 | -0.82
Cc1cccc2c1Oc1nc(-c3cc(Br)ccc3O)[nH]c(=O)c1C2 | 0.88 | -1.3
CC(=O)N1CCN([C@H]2CS(=O)(=O)C[C@@H]2S(=O)(=O)c2ccc(Cl)cc2)CC1 | 3.3 | -2.1
CNC(=S)NNC(=O)c1ccsc1 | nt | -2.4

2 compounds picked at random from those above, as already listed:
SMILES | HIV TAR-Tat | CDC25B CDK2 inh
CC1=C(C(=O)Nc2ccccc2)C(c2cccs2)C(C#N)=C(SCC(=O)Nc2ccccc2)N1 (centres undefined) | 0.73 | -0.05
O=C(CCCSc1nc(-c2ccco2)cc(C(F)(F)F)n1)NC1CCCC1 | 1.8 | -1.6

Back to the main list, starting six compounds before the break.
SMILES | HIV TAR-Tat | CDC25B CDK2 inh
CCC(C#N)(c1ccccc1)c1ccc([N+](=O)[O-])cc1 (centres undefined) | nt | 0.85
O=C(CCCSc1nc(-c2ccco2)cc(C(F)(F)F)n1)NC1CCCC1 | 1.8 | -1.6
Fc1cccc(-c2nnn3c2nc(NCC2CCCO2)c2cc(Cl)ccc23)c1 (centres undefined) | 0.57 | -0.82
Cc1cccc2c1Oc1nc(-c3cc(Br)ccc3O)[nH]c(=O)c1C2 | 0.88 | -1.3
CC(=O)N1CCN([C@H]2CS(=O)(=O)C[C@@H]2S(=O)(=O)c2ccc(Cl)cc2)CC1 | 3.3 | -2.1
CNC(=S)NNC(=O)c1ccsc1 | nt | -2.4
CC1(C)CC(=O)C2=C(C1)N1C(=C(C#N)C2c2ccccc2F)N=C(N)c2ccccc21 (centres undefined) | -4.4 | -0.34
COc1cccc(C2C(C(=O)OCc3ccccc3)=C(C)NC3=C2C(=O)CC(C)(C)C3)c1OC (centres undefined) | -0.23 | -2.6
CN1C(=O)N(CO)C2C1N(C)C(=O)N2CO (centres undefined) | 0.92 | -1.5
CC1=C(C(N)=O)C(c2ccc(N(C)C)cc2)n2ncnc2N1 (centres undefined) | -0.48 | nt
Cc1cc(C)c2c(=O)cc(C(=O)NCC(c3ccco3)N3CCCC3)oc2c1 (centres undefined) | 0.57 | 1.6
CC(C)CCn1c(C(C)O)nc2ccccc21 (centres undefined) | 0.54 | -1.6
CC1CCC2C(=O)N(c3ccc(Oc4ccccc4)cc3)C(=O)C2C1 (centres undefined) | 1.5 | -1.9
Clc1cccc(-c2nn[nH]n2)c1 | 2.3 | -0.98
Cc1nn(S(=O)(=O)c2ccccc2)c(C)c1Oc1ccc(Cl)cc1 | nt | -1.2
Cc1ccc(C(=O)O)c2c1NC(c1ccc(Cl)cc1)C1CC=CC21 (centres undefined) | 2.6 | -0.69
Cc1noc(C)c1S(=O)(=O)N1CCCC1c1cccc(F)c1 (centres undefined) | 0.92 | -2.4
Cc1cc(C)c2c(=O)cc(C(=O)Nc3sc4c(c3C(=O)NCc3cccnc3)CCCC4)oc2c1 | -1.9 | -0.58
COc1ccccc1N1C(=O)CC(Sc2nc(C)cc(C)n2)C1=O (centres undefined) | 0.57 | 1.1
CCc1cc2c(=O)c(-c3nc4ccccc4n3C)c(C(F)(F)F)oc2cc1O | -0.38 | -0.74
CS(=O)(=O)Nc1ccc(C2=NN(C(=O)CCCC(=O)O)C(c3ccco3)C2)cc1 (centres undefined) | 2.8 | -3.3
CCCCNC(=O)CN(C(=O)C1=C(C)OCCS1)c1ccc(Cl)cc1 | 1 | -0.51
Cc1ccc(C(=O)N2CCCC2)cc1NC1=NC2CS(=O)(=O)CC2S1 (centres undefined) | 0.61 | -1.3
O=C(NCC1COc2ccccc2O1)Nc1ccc(Cl)cc1 (centres undefined) | nt | -0.86
COc1ccc(NS(=O)(=O)c2ccc3c(c2)CC(C)N3C(=O)C2CCC2)cc1OC (centres undefined) | 3.1 | nt
O=C(CCCc1c[nH]c2ccccc12)N1CCN(c2ccc(N3CCOCC3)nn2)CC1 | 1 | -0.68
Cc1cc(C)c(Nc2nnc(C)c(=O)[nH]2)c(C)c1 | 2.6 | -0.52
O=C(CSCC(=O)Nc1ccccc1)N/N=C/c1c(O)ccc2ccccc12 | nt | -2.1
Cn1ncc2c(NN3C(=O)CCC3=O)ncnc21 | nt | -1.2
CCN(CCN(C)C)C(=O)c1sc2nc3n(c(=O)c2c1C)CCCCC3 | 2.2 | nt
S=C(N/N=C/c1cccs1)NC1CC2CCC1C2 (centres undefined) | nt | -4.1
CCn1ccc2cc(S(=O)(=O)N3CCCC(C(=O)NC4CC4)C3)ccc21 (centres undefined) | 0.46 | nt
Cc1noc(NS(=O)(=O)c2ccc(NC(=O)CCN3C(=O)c4ccccc4C3=O)cc2)c1C | nt | -3.2
O=C(O)CCCNC(=O)c1cncc(Br)c1 | 1.3 | -1.2
COc1ccccc1N1CCN(c2ccc(=S)[nH]n2)CC1 | 0.17 | -1
CCOC(=O)C1=C(C)NC2=C(C(=O)c3ccccc32)C1c1cccc2ccccc12 (centres undefined) | 0.94 | -0.27
O=C(CCCc1nnc2c(=O)n(-c3ccc(Cl)cc3)ccn12)NCCC1=CCCCC1 | 0.96 | nt
COc1ccc(Oc2ccc(C(F)(F)F)cc2NC(=O)Nc2csc3ccccc23)cc1 | nt | -2.2
Cc1cc(C)n(-c2nc3cc(C(=O)c4ccccc4)ccc3nc2Cl)n1 | 0.55 | -1.9
COc1ccc(N(CC(O)Cn2c3ccccc3c3ccccc32)S(C)(=O)=O)cc1 (centres undefined) | 0.92 | -2.5
COc1ccc(Cc2nc3c4c5c(sc4ncn3n2)CCCC5)cc1 | nt | -1.1
Cc1nn(-c2ccc(N(C)C)nn2)c(C)c1CCC(=O)O | 2.3 | -1.3
CCc1nnsc1C(=O)Nc1sc2c(c1C(N)=O)CCC2 | 0.27 | nt
CCOC(=O)c1c(CSCc2ccc(Cl)cc2)oc2c(F)c(F)c(F)c(F)c12 | nt | -1.2
O=c1[nH]c(-c2ccc(Br)cc2)nc2c1Cc1c(ccc3ccccc13)O2 | 0.97 | 0.09
CC(C)CCn1c(=O)c2[nH]c(=S)[nH]c2n(CC(C)C)c1=O | nt | -1.2
Cc1nonc1NC(=O)c1oc2ccccc2c1C | 1.9 | -2.1
Cn1nc(-c2ccccn2)sc1=S | nt | -1.8
CCN(C(=O)CSc1nnc(C)n2c1cc1occc12)c1ccccc1 | 1.9 | nt

Single entries from above:
In HIV TAR-Tat, CCc1nnsc1C(=O)Nc1sc2c(c1C(N)=O)CCC2 reads 0.27
In CDC25B CDK2 inh, CCOC(=O)c1c(CSCc2ccc(Cl)cc2)oc2c(F)c(F)c(F)c(F)c12 reads -1.2
